GIV-Gai inh: blocks GIV peptide binding to rat Galpha-i3. Galpha-i3/FITC-GIV peptide fluorescence polarization, 90 min; hits give low values; scaled: aluminum fluoride 0%, vehicle 100%. 210,000 compounds, 0.42% hits. P08753. percent of control (FP), % (no concentration beside the values). AID 1224905;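 active = replicate mean at 85% of control or lower, very high polarization wells dropped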;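 note: wells of about 15 µL received 100 nL stock; the first replicate is given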
Target sequence (P08753 whole entry, looked up): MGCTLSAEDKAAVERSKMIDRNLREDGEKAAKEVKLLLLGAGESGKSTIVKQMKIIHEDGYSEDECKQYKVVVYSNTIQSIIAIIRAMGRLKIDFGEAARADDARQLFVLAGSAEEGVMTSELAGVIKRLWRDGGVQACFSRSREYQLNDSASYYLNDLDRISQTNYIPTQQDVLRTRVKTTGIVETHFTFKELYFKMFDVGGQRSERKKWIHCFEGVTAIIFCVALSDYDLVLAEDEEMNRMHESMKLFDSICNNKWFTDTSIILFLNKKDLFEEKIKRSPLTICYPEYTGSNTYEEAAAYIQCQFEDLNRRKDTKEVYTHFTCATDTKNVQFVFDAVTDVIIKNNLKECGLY
* hit, by the source's call. The list is partial; count on the stated rates, not on these rows.

SMILES	GIV-Gai inh
CC(C)(C)c1ccc(N2C(=O)/C(=C/c3ccc(-c4ccc(Br)cc4)o3)C=C2c2ccccc2)cc1	119.6
O=C(NC(Cc1c[nH]c2ccccc12)C(=O)NCc1ccccc1)Oc1ccccc1 (centres undefined)	102.8
CCOc1cc(C(c2c(C)[nH]n(-c3ccccc3)c2=O)c2c(C)[nH]n(-c3ccccc3)c2=O)ccc1OC	69.5*
Cc1ccc(Cn2nc3c(S(=O)(=O)N4CCCCC4)cccn3c2=O)cc1	101.2
Cc1ccc(Nc2cc(C)nc(N3CCN(C(=O)Nc4ccc(Cl)cc4)CC3)n2)cc1	99.6
CCc1cccc(NC(=O)c2sc(-c3cccn3CC)nc2C)c1	102.6
Cc1ccc(-c2cc3nc(C)cc(N4CCC(C(=O)Nc5cccc(Cl)c5)CC4)n3n2)cc1	104.3
COc1ccc(CCn2c(SCC(=O)N3CCN(c4ccccc4OC)CC3)nc3ccccc3c2=O)cc1OC	101.5
CCCCSc1nc2c3cc(OC)ccc3n(C)c2c(=O)n1CC	101.6
CCc1ccc(NC(=O)CSC2=C(C#N)C(c3ccc(C)o3)C3=C(CCCC3=O)N2)cc1 (centres undefined)	111.9
CCOC(=O)c1ccc2c(c1)C1C=CCC1C(c1ccc(OC(C)=O)cc1OC(C)=O)N2 (centres undefined)	109.6
COc1ccc(Cl)cc1S(=O)(=O)Nc1ccccc1-c1ccc2ccccc2n1	100.6
CC(C)(C)c1ccc(C(=O)N/C(=C\c2ccc([N+](=O)[O-])cc2)C(=O)Nc2ccc(Cl)cc2)cc1	106.1
CC1(C(=O)NCc2ccccc2)CCCN(C(=O)CSc2ccccc2)C1 (centres undefined)	115.3
COc1ccc(C2(O)CN(c3ccc(Cl)cc3)C3=[N+]2CCCC3)cc1OC (centres undefined)	109.3
CC1CCN(C(=O)c2csc(Nc3ccc(F)c(F)c3)n2)CC1	106.9
Cc1ccc2c(c1)Oc1ccc(S(=O)(=O)N3CCCC3)cc1C(=O)N2	103.4
Cc1ccc(/C(O)=C2\C(=O)C(=O)N(c3ccccn3)C2c2cccc(Br)c2)cc1 (centres undefined)	108.1
Cc1ccccc1CN1C(=O)c2ccccc2C1C(=O)NCCCOC(C)C (centres undefined)	103.2
Cc1csc(-c2csc(S(=O)(=O)N3CC=C(c4ccccc4)CC3)c2)n1	99.8
CC(=O)OC1CCN(C(C)=O)CC1	106.2
CC(=O)Nc1ccc(-c2noc(C3CCCN(C(=O)CCc4ccccc4)C3)n2)cc1 (centres undefined)	105.1
O=C(Nc1ccc(F)c(Cl)c1)N1CCN(Cc2cc(=O)n3nc(-c4cccc(F)c4)sc3n2)CC1	106.0
Cc1nnc(-c2ccc(Cl)cc2)nc1N1CCC2(CC1)OCCO2	123.7
CCOC(=O)c1sc2nc(CC(=O)OC)nc(NCc3ccccc3Cl)c2c1C	104.7
CC(C)Cn1nc2c(S(=O)(=O)N3CCc4ccccc4C3)cccn2c1=O	104.8
Cc1csc(-c2cc(S(=O)(=O)N3CCOCC3)cn2CC(=O)N2CCCCC2)n1	101.4
O=C(NC1CCCC1)c1ccc(SCCN2CCOCC2)nc1	100.5
Cc1nc(-c2csc(S(=O)(=O)N3CCCC(C(=O)NCCN4CCCC4)C3)c2)no1 (centres undefined)	107.6
CCCCc1ccc(C(=O)N/C(=C\c2ccc(C)cc2)C(=O)Nc2ccc(Cl)c([N+](=O)[O-])c2)cc1	109.4

The final two compounds of the part above lead into the next:
SMILES	GIV-Gai inh
Cc1nc(-c2csc(S(=O)(=O)N3CCCC(C(=O)NCCN4CCCC4)C3)c2)no1 (centres undefined)	107.6
CCCCc1ccc(C(=O)N/C(=C\c2ccc(C)cc2)C(=O)Nc2ccc(Cl)c([N+](=O)[O-])c2)cc1	109.4
N#CC1=C(N)S[C@@H](C(=O)c2ccc(F)cc2)[C@@H]1c1ccc(F)cc1	104.8
Cc1ccc(C(=O)N2CCc3c([nH]c4ccccc34)C2c2ccc3c(c2)OCO3)cc1 (centres undefined)	107.8
COc1ccc(-n2c(SCC(=O)N(C)Cc3ccccc3)nc3cc(C(=O)NCc4ccco4)ccc3c2=O)cc1OC	103.9
Cn1c(=O)oc2cc(S(=O)(=O)NCCc3nc(-c4ccc(F)cc4)n[nH]3)ccc21	103.1
Cc1cc2c(cc1S(=O)(=O)NCc1ccc(Br)cc1)OCC(=O)N2	105.0
CCOC(=O)c1nc(Nc2ccc(OC)c(Cl)c2)c2c(C)c(C)n(-c3ccccc3)c2n1	97.8
Cc1nc(CN2C(=O)COc3ccc(S(=O)(=O)N(C)C4CCCCC4)cc32)no1	105.4
CC(C)N(CCOC(=O)C1(c2ccccc2)CCOc2ccccc21)C(C)C (centres undefined)	102.1
COc1ccc(-c2cc(C(F)(F)F)n3ncc(C(=O)NCCCN4CCOCC4)c3n2)cc1OC	102.1
COc1ccc(Cl)cc1NC(=O)Nc1ccc(-c2nnc(-c3ccccc3)o2)cc1	102.8
CCOCCOC(=O)C1=C(C)NC2=C(C(=O)CC(c3cccs3)C2)C1c1cccc(Cl)c1Cl (centres undefined)	102.6
CCCCn1c(=O)[nH]c2c(C(=O)N3CCC(C)CC3)snc2c1=O	102.1
COc1ccccc1N1CCN(c2ncc(S(=O)(=O)c3ccc(C)cc3)c(N)n2)CC1	100.6
CC(C)c1nnc(-c2ccc3c(c2)OCO3)o1	98.5
CC(C)(C)C(=O)[C@H]1[C@H](c2ccccc2)C(C#N)(C#N)[C@@H]2c3ccccc3C=CN21	108.0
CN1CCN(C(=O)CNC(=O)Cn2cnc3sc4c(c3c2=O)CCCC4)CC1	105.6
CCN(CC)C(=O)CSc1nc2ccccc2c(=O)n1CCCC(=O)NCCc1ccc(OC)c(OC)c1	106.6
CCCS(=O)(=O)c1c(S(=O)(=O)CCC)c2cnccn2c1C(=O)c1ccc(F)cc1	109.0
Cc1ccc2c(c1)NC(=O)c1cc(S(=O)(=O)N3CCSCC3)ccc1O2	108.7
CCCN1C(=O)NC2C1NC(=O)N2CCC (centres undefined)	103.4
CCCS(=O)(=O)c1c(S(=O)(=O)CCC)c2c(C)cccn2c1C(=O)N/N=C/c1cc(OC)c(OC)c(OC)c1	106.6
O=C(CSc1nnc2c(=O)n(-c3ccc(Br)cc3)ccn12)c1ccccc1	102.3
O=C(NCc1ccc(Br)cc1)c1ccc(-c2cc(N3CCOCC3)ncn2)cc1	95.2
Cc1cc(NC(=O)Cn2c(=O)ccc3cc(S(=O)(=O)N4CCCC4)ccc32)c2ccccc2n1	104.1
CCc1ccc(N=CC23c4ccccc4C(c4ccccc42)C2C(=O)N(c4ccc(OC)cc4)C(=O)C23)cc1 (centres undefined)	119.7
COc1ccc(N2CC(c3nnc(NC(=O)COc4ccc(C)cc4)o3)CC2=O)cc1 (centres undefined)	103.3
O=C(CCN1C(=O)C2C3C=CC(C3)C2C1=O)N1CCN(C(=O)CCN2C(=O)C3C4C=CC(C4)C3C2=O)CC1 (centres undefined)	102.2
CC12C(=O)N(c3ccc4ccccc4c3)C(=O)C1C1c3ccccc3C2c2ccccc21 (centres undefined)	118.3
CCOc1cc(/C=N/NC(=O)c2nnn(-c3nonc3N)c2CN2CCCCCC2)ccc1O	110.5
COc1ccc(C2C=C(Nc3ccc(C)cc3)C(=O)N2c2ccc(C)cc2)c(OC)c1 (centres undefined)	105.5

Retrieved one by one from the entries so far (2):
SMILES	GIV-Gai inh
CCCS(=O)(=O)c1c(S(=O)(=O)CCC)c2c(C)cccn2c1C(=O)N/N=C/c1cc(OC)c(OC)c(OC)c1	106.6
COc1ccc(C2C=C(Nc3ccc(C)cc3)C(=O)N2c2ccc(C)cc2)c(OC)c1 (centres undefined)	105.5

Later entries.
SMILES	GIV-Gai inh
COc1ccc(Cl)cc1NS(=O)(=O)c1cc(-c2cc(C(F)(F)F)[nH]n2)sc1C	101.9
COc1ccccc1Cc1nc2ccccc2nc1SCC(=O)Nc1nccs1	108.2
Nc1c(C(=O)Nc2nccs2)sc2nc3c(c(-c4ccc(Cl)cc4)c12)CCC3	98.8
O=C(NCc1ccncc1)c1sc2ncccc2c1-n1cccc1	105.9
O=C(Nc1ccc(N2S(=O)(=O)c3ccccc3S2(=O)=O)cc1)c1ccccc1F	103.5
COc1ccc(COC(=O)C2=C(C)NC3=C(C(=O)CC(C)(C)C3)C2c2cc([N+](=O)[O-])ccc2Cl)cc1 (centres undefined)	102.8
CC(C)c1cnc2c(c1SCC(=O)NCc1ccc(F)cc1)c(=O)n(C)c(=O)n2C	103.0
Cc1ccc(C)c(NC(=O)C2CC2(c2ccccc2)c2ccccc2)c1 (centres undefined)	110.2
COc1ccc(OC)c(NC(=O)CSc2nc3n[nH]c(C)c3c(=N)n2-c2cccc(Cl)c2)c1	110.9
COc1cc2c(cc1OC)C(C)=NC1(CCCCC1)C2	105.1
CC(=O)N(CN1C(=O)C2C3c4ccccc4C(c4ccccc43)C2C1=O)c1ccccc1 (centres undefined)	108.1
O=C(Nc1sc2c(c1C(=O)Nc1ccccc1)CCCCC2)c1ccncc1	113.8
CN1C(=S)SC(N2OC3C(=O)N(c4ccccc4)C(=O)C3C2c2ccc([N+](=O)[O-])cc2)C1(C)C (centres undefined)	109.4
O=C(NCCN1CCCCCC1)C1CCN(c2cnc(N3CCCC3)nc2)CC1	100.9
O=C1CN(C(=O)NCC2CCCO2)CCN1 (centres undefined)	97.9
CN1CCN(C(=O)c2nn3c(C(F)(F)F)cc(-c4ccc(Br)cc4)nc3c2Cl)CC1	97.1
Cc1[nH]c(C)c(S(=O)(=O)Nc2ccc3c(c2)OCCO3)c1-c1nc(C2CC2)no1	113.8
Cc1nc(-c2cc(S(=O)(=O)Nc3ccc(Cl)cc3)c(C)s2)sc1C	100.9
O=c1n(Cc2ccc3c(c2)OCO3)nc2c(S(=O)(=O)N3CCCCC3)cccn12	107.5
CC(C)n1c(SCc2nc(-c3ccccc3)no2)nc2cc3c(cc2c1=O)OCO3	103.6
COc1cccc(NC(=O)c2cccn3c(-c4ccccc4F)nnc23)c1	106.9
CCOC(=O)C1=NN(c2ccc(Cl)cc2)C(c2ccc(Cl)cc2)N1C(C)(C)C (centres undefined)	105.2
COc1cccc(-c2cc3n(C)c(C)c(CCC(=O)N4CCC(Cc5ccccc5)CC4)c(=O)n3n2)c1	108.3
COCc1cc(C)nc(SCc2ccc(Cl)cc2Cl)c1C#N	100.2
CC(C)(C)C(=O)CSc1nc2ccccc2nc1Cc1cccc([N+](=O)[O-])c1	112.7
O=C(O)c1ccc(C2Nc3ccc(F)cc3[C@H]3OCCC[C@@H]23)cc1 (some centres undefined)	103.2
CCCCCCCCCc1cnc(-c2ccc(OCCCCCC)cc2)nc1	103.3
COc1nc(NCCN2CCOCC2)nc(Nc2ccc([N+](=O)[O-])cc2)n1	105.5
COc1ccc(N(CC(=O)N2CCN(c3ccccc3OC)CC2)S(=O)(=O)c2ccc(C)cc2)cc1	114.9
O=C(NC1CCCCC1)c1ccc(-c2cc(N3CCCC3)ncn2)cc1	105.0
CCCCC(C(=O)Nc1cc(C)ccc1C)N1C(=O)C2C3c4ccccc4C(c4ccccc43)C2C1=O (centres undefined)	114.8
Cc1[nH]n(-c2ccccc2)c(=O)c1C(c1ccc(OC(=O)c2ccc(C(C)(C)C)cc2)cc1)c1c(C)[nH]n(-c2ccccc2)c1=O	107.3
CCOc1ccc(C2Nc3ccc(CC)cc3[C@H]3OCC[C@@H]23)cc1OCC (some centres undefined)	98.2
COc1ccc(Sc2nc3ccccc3n3nnnc23)cc1	102.3
O=C(Nc1nnc(SCc2cc(=O)n3ccccc3n2)s1)c1ccc(F)cc1	102.1
O=C1C2C3C=CC(C2C(=O)N1c1ccc(F)cc1)C1C(=O)N(c2ccc(F)cc2)C(=O)C31 (centres undefined)	112.2
Cc1c(C(=O)Nc2ccc(F)c(Cl)c2)sc2ncn(CC(=O)Nc3cccc(C(F)(F)F)c3)c(=O)c12	102.3
COC(=O)c1nnn(-c2nonc2N)c1CN1CCCCCC1	116.5
Cc1ccc(N2C(=O)C3C4c5ccccc5C(CO)(c5ccccc54)C3C2=O)c(C)c1 (centres undefined)	108.3
Cn1c(N2CCN(C(=O)c3cnccn3)CC2)cc(=O)n(C)c1=O	100.2
Nc1c(C(=O)Nc2ccc(F)cc2)sc2nc3c(c(-c4ccco4)c12)CCCCC3	103.0
COc1ccc(-c2[nH]ncc2CN2CCCC2c2cc(C(C)C)on2)cc1 (centres undefined)	125.5
O=C1CN(Cc2ccc(F)cc2Cl)S(=O)(=O)c2ccccc2N1Cc1ccccc1	104.8
CCOc1ccc(N/C(SCc2ccccc2Cl)=C(/C#N)C(=O)NCc2ccco2)cc1	117.4
O=C(NC1CC1)c1[nH]c2ccccc2c1N1CCCC1=O	113.6
COC(=O)c1cc(NC(=O)c2cc3cc([N+](=O)[O-])ccc3oc2=O)cc(C(=O)OC)c1	110.2
Cc1ccc(C(C)C)c(OCCOc2cccc(-c3nc4sc5c(c4c(=O)[nH]3)CCCC5)c2)c1	100.2
CCOC(=O)c1sc2ncnc(N3CCC(C(=O)OCC)CC3)c2c1C	100.8
O=c1c2cn[nH]c2nc(SCc2cc(=O)n3ccccc3n2)n1-c1ccccc1Cl	105.8
COCCNc1c(-c2ccc(N(C)C)cc2)nc2sc3ccccc3n12	97.0
O=C(CSc1nc2ccccc2c(=O)n1CC1CCC(C(=O)NCc2ccco2)CC1)NCCc1ccccc1 (centres undefined)	116.5
COc1ccc(CCNC(=O)CSc2nc3n[nH]c(C)c3c(=N)n2-c2ccc(Cl)c(C)c2)cc1OC	103.5
